# Assay outcomes as filed in PubChem.
# VDR inhibitor: Inhibitors of the vitamin D receptor (VDR): qHTS; Vitamin D3 receptor (Homo sapiens), P11473; VDR-SRC2-3 peptide fluorescence polarization, 2 h; Potency, µM, inactives show max response, negative = inhibition, usual class: inhibitors; actives 0.93% (n = 400,000); active = well fitted inhibition curve with a large enough effect; inconclusive = small, poorly fitted or top-dose-only effect, or another doubt; inactive = no such curve, though single readings can be large or run the other way; note: series mostly up to about 120 µM
# Target sequence (P11473 whole entry, looked up): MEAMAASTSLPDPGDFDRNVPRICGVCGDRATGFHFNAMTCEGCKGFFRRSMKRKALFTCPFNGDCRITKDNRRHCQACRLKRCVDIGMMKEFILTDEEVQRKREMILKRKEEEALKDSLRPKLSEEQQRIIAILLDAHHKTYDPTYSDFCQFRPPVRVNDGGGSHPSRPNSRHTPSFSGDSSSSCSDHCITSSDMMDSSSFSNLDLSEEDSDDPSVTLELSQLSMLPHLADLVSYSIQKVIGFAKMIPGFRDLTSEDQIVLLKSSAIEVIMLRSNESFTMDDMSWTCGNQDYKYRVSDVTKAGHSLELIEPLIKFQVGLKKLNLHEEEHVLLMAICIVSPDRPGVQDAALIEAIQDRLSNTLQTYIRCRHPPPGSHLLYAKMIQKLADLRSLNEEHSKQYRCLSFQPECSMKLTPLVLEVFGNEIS
#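 The screen uses fluorescence polarization to detect compounds that interfere with recruitment of the SRC2-3 coactivator peptide to VDR; plates are read after 2 h at room temperature.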
# Numbers without * were called inactive; ? = inconclusive; & = joins results of further samples. % is set by controls: 0 for no effect and ±100 for the full control effect; potency is the fitted concentration of half-maximal effect. A portion of the library (hit frequency here may not be typical).
SMILES,VDR inhibitor
CCCN(Cc1nnc(-c2cccs2)o1)C(=O)CN1C(=O)NC2(CCCCC2C)C1=O (configuration not stated),-0.5%
Cc1ccc(C(=O)CN(CCCC(N)=O)C(=O)c2ccncc2)cc1,-5.9%
Cn1nnnc1SCC(=O)N1CCN(c2cccc(Cl)c2)CC1,-19.0%
COc1ccc(C2=Nc3ccc(C)cc3C(c3ccccc3)N2CC(=O)NN)cc1 (configuration not stated),-1.4%
COc1ccccc1OCc1ccc(C(=O)NN)o1,11.8%
Cc1ccc2c(c1)CCCN2C(=O)c1ccc2c(c1)OCO2,3.1%
CC(C)(C)OC(=O)C(Cc1ccc(OC(C)(C)C)cc1)NC(=O)CNC(=O)CNC(=O)OCc1ccccc1 (configuration not stated),10.7%
COc1ccc(-c2c(C#N)c(SCC(=O)Nc3cccc(Cl)c3)nc(C)c2C(=O)Nc2ccccc2)cc1OC,7.0%
CC[C@@H](C)C(NC(=O)OC(C)(C)C)c1cn([C@@H](CCCCNC(=O)OC(C)(C)C)C(=O)N2CCN(C(=O)OC(C)(C)C)CC2)nn1 (some centres not stated),-1.6%
CC1(C)Cc2c(cnn2-c2ccccc2)C(NC(=O)c2ccc[n+]([O-])c2)C1 (configuration not stated),-13.3%
CC1(C)CC(NS(=O)(=O)c2ccc(F)cc2)CC(C)(C)N1,5.6%
COc1ccc(CNC(=O)C2CCN(S(=O)(=O)N3CCC4(CC3)OCCO4)CC2)c(OC)c1,-5.8%
CN(Cc1ccccc1F)C(=O)c1sccc1-c1ccccc1,9.4%
Cc1[nH]n(-c2ccccc2)c(=O)c1-c1ccccc1,-19.1%
CCC(C)Sc1nnc(NC(=O)c2ccco2)s1 (configuration not stated),-2.0%
CCOC(=O)c1c(NC(=O)CCl)sc(C(=O)N(CC)CC)c1C,-0.1%
Cc1ccc(N(CCC(=O)NC(C)(C)C)S(=O)(=O)c2ccc(C)cc2)cc1,-7.4%
O=C(c1ccccc1)N1CCN(Cc2ccccc2Br)CC1,-17.1%
CCCCN1C(N)=NC[C@@H]1CC1CCCCC1,-10.8%
CC1(C(=O)O)CCC(C(=O)N2CCCCC2)C1(C)C (configuration not stated),-4.9%
Cn1nnnc1Sc1ccc([N+](=O)[O-])cc1Cl,-1.7%
CN1CCN(C(=O)/C=C/c2ccc3c(c2)OCO3)CC1,1.0%
CC(NC(=O)Nc1nnc(C(F)(F)F)s1)N1C(=O)C2C3C=CC(C3)C2C1=O (configuration not stated),15.2%
COc1cccc2c1cc1c(=O)n(CC(=O)NCc3ccco3)nc(C)n12,17.3%
C[C@H]1CN=C(Nc2ccccc2)N1CCCC1CCCC1,-10.7%

# Of the compounds above, these contain four or more nitrogen atoms:
SMILES,VDR inhibitor
CCCN(Cc1nnc(-c2cccs2)o1)C(=O)CN1C(=O)NC2(CCCCC2C)C1=O (configuration not stated),-0.5%
Cn1nnnc1SCC(=O)N1CCN(c2cccc(Cl)c2)CC1,-19.0%
COc1ccc(C2=Nc3ccc(C)cc3C(c3ccccc3)N2CC(=O)NN)cc1 (configuration not stated),-1.4%
COc1ccc(-c2c(C#N)c(SCC(=O)Nc3cccc(Cl)c3)nc(C)c2C(=O)Nc2ccccc2)cc1OC,7.0%
CC[C@@H](C)C(NC(=O)OC(C)(C)C)c1cn([C@@H](CCCCNC(=O)OC(C)(C)C)C(=O)N2CCN(C(=O)OC(C)(C)C)CC2)nn1 (some centres not stated),-1.6%
CC1(C)Cc2c(cnn2-c2ccccc2)C(NC(=O)c2ccc[n+]([O-])c2)C1 (configuration not stated),-13.3%
Cn1nnnc1Sc1ccc([N+](=O)[O-])cc1Cl,-1.7%
CC(NC(=O)Nc1nnc(C(F)(F)F)s1)N1C(=O)C2C3C=CC(C3)C2C1=O (configuration not stated),15.2%
COc1cccc2c1cc1c(=O)n(CC(=O)NCc3ccco3)nc(C)n12,17.3%

# Next part:
SMILES,VDR inhibitor
COc1ccc2c(c1)C(=O)N(c1ccc(C)cc1C)C(=O)C2(C)C,-6.9%
Clc1ccc(Nc2ncnc3c2nnn3Cc2ccccc2)cc1,-2.8%
COc1ccc(C)cc1-n1nnc(C(=O)Nc2cccc(SC)c2)c1C,5.9%
CCCCn1c(SCC(=O)OCC)nc2c(sc(=S)n2-c2ccccc2OC)c1=O,-15.8%
CCN(c1ccccc1)S(=O)(=O)c1ccc(-c2cc(C)no2)s1,2.2%
COc1ccc(-c2noc(CN3CCN(c4ccccc4)CC3)n2)cc1,-19.3%
O=C(Cc1ccccc1)Nc1cccc(C(=O)N/N=C/c2ccco2)c1,2.9%
CCc1ccccc1-n1nnc(-c2ccccc2)n1,8.4%
COc1ccc(NC(=O)c2oc3ccccc3c2NC(=O)c2cc(C)cc(C)c2)c(OC)c1,8.6%
COc1ccccc1NC(=O)C(=O)NCC1CCCN1S(=O)(=O)c1cccs1 (configuration not stated),-4.9%
CC1CCCCN1C(=O)CCn1c(=S)oc2ccccc21 (configuration not stated),-1.2%
COCCNC(=S)NNc1cccc(C(=O)O)c1,?
CCCOC1CCCN(C(=O)c2cc(COc3ccc(-n4cncn4)cc3)on2)C1 (configuration not stated),3.0%
COc1cccc(OCc2cc(C(=O)N3CCNC(=O)C3Cc3ccccc3)no2)c1 (configuration not stated),4.8%
O=C(Cn1ncc2c3ccccc3n(Cc3cccc(Cl)c3)c2c1=O)NCCCN1CCCCC1,18.7%
Fc1ccc(-c2nnc(CN3CCN(c4ncc(C(F)(F)F)cc4Cl)CC3)o2)cc1,1.4%
COC(=O)c1[nH]c2ccc(C)cc2c1NC(=O)CN1CCc2cc(OC)c(OC)cc2C1,0.4%
Cn1c(CNC(=O)CNS(=O)(=O)c2ccc(F)cc2F)cc(=O)n(C)c1=O,-4.4%
C=CC(=O)Nc1cccc(Oc2cc(Cl)nc3[nH]ccc23)c1,-7.9%
Cc1cc(C)cc(Oc2coc3cc(O)ccc3c2=O)c1,-5.5%
CC(=O)c1cccc(NC(=O)CC2Oc3ccc(C)cc3NC2=O)c1 (configuration not stated),-10.2%
COc1ccc(C(=O)Nc2ccc(Cl)cn2)cc1Cl,-10.4%
CC(=O)c1ccc(CCCCCCCCCC(=O)O)s1,5.2%
CCN(CCCNC(=O)CN1N=C(c2ccccc2)CCC1=O)c1ccccc1,5.6%
Cc1nc2ccccc2n1CCc1nc2c3ccccc3nc(=S)n2[nH]1,-11.7%
# Continued.
SMILES,VDR inhibitor
COc1ccc(C)cc1NC(=O)c1cc(-c2ccccc2)nc2c1cnn2C(C)C,-8.6%
O=C(Nc1c2c(nn1-c1ccccc1)CS(=O)C2)c1ccc(S(=O)(=O)N2CCOCC2)cc1 (configuration not stated),11.7%
O=C(NC1CCS(=O)(=O)C1)c1ccc(S(=O)(=O)N2CCCC2)cc1 (configuration not stated),-15.5%
O=C(O)CNC(=O)C(Cc1ccccc1)NC(=O)OCc1ccccc1 (configuration not stated),2.1%
CCOC(=O)C1=C(O)CSC1=Nc1cccc(Cl)c1,-0.2%
Cc1cccc(NC(=O)CSc2cccc[n+]2[O-])c1C,?
COc1cc(/C=N\NC(=O)CNC(=O)C2COc3ccccc3O2)ccc1O (configuration not stated),-6.4%
CC(=O)c1ccc(NC(=S)NC(=O)CC(C)C)cc1,3.8%
COc1ccccc1N1CCN(/N=C/C(Cl)=C/c2ccccc2)CC1,-10.5%
CCOc1ccc(N(CC(=O)Nc2ccccc2OCC)S(=O)(=O)c2c(C)noc2C)cc1,-2.0%
CCCCNC(=S)N=Nc1c(O)[nH]c2ccccc12,-5.9%
COc1ccc(CN2CCN(C(=O)CN3C(=O)C4C5C=CC(C5)C4C3=O)CC2)c(OC)c1OC (configuration not stated),-3.2%
CC(C)c1ccc(NS(=O)(=O)c2ccc3[nH]cc(C(=O)N4CCCC4)c(=O)c3c2)cc1,-8.5%
COc1ccc(S(=O)(=O)N2CCC(C(=O)NCc3ccc(C)cc3)CC2)cc1,-11.9%
O=C(NN=Cc1ccc2c(c1)OCO2)NN=Cc1ccc2c(c1)OCO2,-1.7%
COC(=O)c1cccc2c1NC(=O)C2=O,-7.2%
CC(C)(O)C#Cc1ccc(C(=O)N2CCCC(CNS(=O)(=O)c3cccs3)C2)o1 (configuration not stated),6.9%
O=C1CCCc2c1cnc1ncnn21,-1.4%
CC(NC(N)=O)C(=O)OCc1ccc(Cl)cc1Cl (configuration not stated),-4.5%
COc1ccc(NC(=O)CSc2nncc3ccccc23)cc1,-11.7%
NC(=O)c1ccc(N2CCN(c3ccccc3F)CC2)c([N+](=O)[O-])c1,17.0%
O=C(CCC(=O)N1CCN(c2ccccc2F)CC1)N1CCN(c2ccccc2)CC1,-3.5%
CCC(=O)N1CCc2cc(Br)cc(S(=O)(=O)N3CCC(C(=O)Nc4cccc(C)c4)CC3)c21,-1.0%
CCCn1c(=O)c2c(nc3n2CCCN3CCc2ccccc2)n(C)c1=O,-9.1%
Fc1ccc(Cn2nnnc2C(c2cccs2)N2CCN(C3CCCCC3)CC2)cc1 (configuration not stated),-10.0%
# Remaining list, next part
SMILES,VDR inhibitor
CCCCCCOc1ccc(/C=c2\s/c(=C(/C#N)C(=O)NCc3ccco3)n(-c3ccccc3)c2=O)cc1,4.1%
CCOc1ccccc1C1CC(=O)Nc2cc3c(cc21)OCCO3 (configuration not stated),13.2%
O=C(NCC1CCCO1)c1ccc(CS(=O)(=O)c2ccc(Cl)cc2)o1 (configuration not stated),1.5%
Cc1cc(SCC(=O)NC2CCCCC2)nc2ccccc12,7.3%
O=c1c(N2CCCCC2)coc2ccccc12,8.7%
CC(Oc1ccccc1F)C(=O)Nc1ccc(-c2nc3ccccc3s2)cc1 (configuration not stated),7.0%
O=C(CSc1nncs1)N1CCN(C(=O)c2ccco2)CC1,-22.4%
CCCOc1ccc(-c2c(C(=O)N/N=C(\C)c3cccnc3)nnn2-c2nonc2N)cc1,-10.2%
O=C(Nc1ccc(F)cc1F)c1ccccc1NC(=O)C1CC=CCC1C(=O)O (configuration not stated),3.1%
COc1ccc(C)cc1NC(=S)N1CCN(S(C)(=O)=O)CC1,-5.2%
CCN1CCN(c2c(S(=O)(=O)c3ccccc3)cnc3ccc(Cl)cc23)CC1,5.2%
COc1ccc(/C=C/C(=O)NC(=S)N2CCN(C)CC2)cc1,-9.0%
Nc1nonc1C(=O)N/N=C/c1ccncc1,11.5%
CCCc1cc(=O)oc2cc(C)c3c(-c4cccc(OC)c4)coc3c12,15.0%
CSCCC(NC(N)=O)C(=O)Nc1ccc2ccccc2c1 (configuration not stated),3.7%
Cc1ccccc1NC(=O)CSc1nc2ccc(NC(=O)c3ccco3)cc2s1,2.2%
CCSc1ccccc1C(=O)Nc1cccnc1,-11.8%
CCCCn1c(=O)n(C)c(=O)c2c3c(sc21)COC(C)(C)C3,4.1%
Cc1ccc(NC2=C(Cl)C(=O)OC2OC(=O)c2ccco2)cc1C (configuration not stated),-0.3%
O=C(O)CSc1c2c(nc3cc(C(=O)Nc4ccc(F)c(Cl)c4)ccc13)CCCC2,?
Cc1nn(Cc2ccc(Cl)c(Cl)c2)c(C)c1NC(=O)c1noc2c1CCc1ccccc1-2,-15.6%
C=CC[n+]1c(-c2ccc(Cl)cc2Cl)csc1Nc1c(C)n(C)n(-c2ccccc2)c1=O,21.3%
CN1c2ccccc2C(=O)/C(=C\Nc2ccc(F)cc2)S1(=O)=O,7.4%
O=C(NCc1ccc2c(c1)CCO2)Nc1cccc(C(F)(F)F)c1,25.4%
CCCCn1c(SCC(=O)NC2CC(C)(C)NC(C)(C)C2)nc2cc(S(N)(=O)=O)ccc21,0.6%

# Three structures from above, sorted by length of the SMILES, low to high:
SMILES,VDR inhibitor
O=c1c(N2CCCCC2)coc2ccccc12,8.7%
O=C(CSc1nncs1)N1CCN(C(=O)c2ccco2)CC1,-22.4%
O=C(NCC1CCCO1)c1ccc(CS(=O)(=O)c2ccc(Cl)cc2)o1 (configuration not stated),1.5%

# Later entries.
SMILES,VDR inhibitor
Cc1ccc2c(c1)C(=O)OC(C(=O)Nc1ncc(Cc3ccccc3Cl)s1)C2 (configuration not stated),-9.4%
O=C1c2ccccc2C(=O)N1CCc1csc(-c2ccc(F)cc2)n1,-10.3%
Cn1nccc1C(=O)Nc1ccn(C23CC4CC(CC(C4)C2)C3)n1,-13.3%
CCOc1ccc(N(CC(=O)N2CCc3ccccc32)S(=O)(=O)c2c(C)noc2C)cc1,-23.8%
COc1ccc(N(CC(=O)NCc2ccco2)S(C)(=O)=O)cc1OC,4.9%
CCOc1ccc(NC(=O)CN(C)C(=O)c2ccccc2-n2cnnn2)cc1OCC,-1.3%
CCOc1ccc(NC(=O)c2ccc(NC(=O)CCS(=O)(=O)c3cccs3)cc2)cc1,-8.9%
Clc1ccc(-n2ncc3c(NC4CCCC4)ncnc32)cc1,8.3%
Cc1ccc(/C=C2\CCn3c2nc2cc(C(=O)O)ccc2c3=O)c(C)c1,-27.2%
O=C(C[C@H]1C/C=C\CC[C@@H](Cc2ccc(F)cc2)C(=O)OC[C@H]2CCCN2C1=O)NCCO,-15.9%
CN(c1ccccc1)S(=O)(=O)c1ccc(NC(=O)c2ccccc2C(=O)O)cc1,21.7%
Cc1ccc2oc3c(c(=O)c2c1)C1(C(=O)N(C)c2ccccc21)N(CCCO)C3=O (configuration not stated),5.2%
Cc1ccc(NC(=O)c2ccc3snnc3c2)cc1Cl,20.5%
O=C(NCCc1nc(-c2ccccc2Cl)no1)C1CCCCC1,-7.4%
O=C(NCC(F)(F)F)Nc1cccnc1,10.2%
COc1cccc(-c2cc(C(=O)Nc3cccnc3Cl)no2)c1,0.1%&3.8%
C/C(=N\NC(=O)C1CC1)c1ccccc1O,7.0%
CCOc1ccc(-c2cc(NC(=O)c3c(F)cccc3F)c(C(=O)O)s2)cc1,?
CCCCCCC1CC(CCc2nc(=S)[nH][nH]2)C(=O)O1 (configuration not stated),?
COC(=O)c1ccccc1S(=O)(=O)NC(=O)c1ccccc1,17.0%
O=C(NC(Cc1ccccc1)C(=O)O)/C(=C/c1cccc([N+](=O)[O-])c1)NC(=O)c1cccc(Br)c1 (configuration not stated),0.6%
